Bioassay records as filed in PubChem BioAssay.
CapD inh – Bacillus anthracis CapD inhibitors, primary screen, biochemical, fluorescence intensity; AID 492967, 2010; z-score (no concentration beside the values); purified CapD enzyme, fluorescence intensity read-out; active compounds read low; some hits fall short of the stated cut; actives 0.23% (n = 140,000); CapD gamma-glutamyltranspeptidase (Bacillus anthracis Ames Ancestor);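 active = z-score under -4 in either of two replicates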;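 also: stock transfer was 100 nL into about 40 µL; score is relative to mean and spread of the plate; one replicate is shown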
AID504770 – growth inhibition of E. coli YBA685, primary screen, V. cholerae RctB inhibitors; E. coli YBA685 rctB-dependent plasmid, OD600 growth, 3 h; active compounds read low; z-score (no concentration beside the values); actives 0.27% (n = 130,000); AID 504770, 2011;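 active = z-score under -2 on both plates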;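 also: wells of about 30 µL received 100 nL stock; score is relative to mean and SD of the test wells; the first replicate is given; strong numbers were not always called active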
Starred values were filed as active, the others as inactive; · = not tested or not shown.

Every second line gives: CapD inh, AID504770
- COc1ccc(S(=O)(=O)n2ccc(C3CC3)n2)cc1
    0.13, -0.25
- O=C(CNS(=O)(=O)Cc1ccccc1)NCc1ccccc1
    ·, -0.25
- O=c1[nH]cc(NCc2ccco2)c(=O)[nH]1
    ·, 2.2
- COc1ccc(O)c(-c2ccncn2)c1
    -0.41, ·
- C#CCOC1(C)COC(C)(OCC#C)CO1 (centres undefined)
    -0.41, 1.1
- CCOC(=O)/C(C#N)=C\Nc1ccc(-c2nnc(C(F)(F)F)o2)cc1C
    3, 0.05
- COc1ccc(S(=O)(=O)NCCC(=O)NC2CCCCC2)cc1
    -0.01, -0.45
- N#Cc1c(C(F)(F)F)cc(-c2cccs2)nc1OCC(=O)c1ccccc1
    21, 0.75
- N#CCc1cc(Cl)cc2c1OCOC2
    0.17, -0.6
- Cc1ccc(C)c(NC(=O)c2ccc(-n3cnnc3)cc2)c1
    0.37, -0.7
- CCOC(=O)c1c(N)n(CCc2ccccc2)c2nc3ccccc3nc12
    22, 0.85
- CC(C)(C)c1csc(NC(=O)c2ccc(F)cc2)n1
    -0.39, -0.15
- O=C(CSc1nc2cc(C(=O)NCc3ccco3)ccc2c(=O)n1Cc1ccco1)NCCC1=CCCCC1
    0.75, ·
- c1ccc2c(c1)nc(SC1CCCCC1)c1nncn12
    0.65, 2.1
- Cc1ccc(C2=NN3C(C2)c2cc(Br)ccc2OC3c2ccc(OCc3ccccc3)cc2)cc1 (centres undefined)
    -0.34, ·
- c1csc(CNCc2cccs2)c1
    -1.1, 0.4
- Cc1[nH]c2ccc(C(=O)OC3CCOC3=O)cc2c1C (centres undefined)
    ·, 1.2
- CC1CCN(C(=O)CN(C)S(=O)(=O)c2ccc3ccccc3c2)CC1
    ·, 1.3
- COC(=O)c1ccc(NC(=O)COC(=O)C2=NN(c3ccccc3)C(=O)CC2)cc1
    ·, -0.45
- CS(=O)(=O)c1cc(C#N)c(N2CCNCC2)nc1-c1ccc(Cl)cc1
    -0.005, ·
- C=CCNC(=O)c1ccc2c(c1)N(Cc1cccc(Cl)c1)C(=O)c1ccccc1S2
    -0.68, 0.15
- COc1ccccc1N1C(=O)CCC1(C#N)c1ccc(OCc2ccccc2)cc1 (centres undefined)
    -0.33, 2.6
- O=C(Nc1ccc(Br)cc1)c1csc(-c2ccncc2)n1
    0.075, ·
- CCC(=O)Nc1cc(C(=O)O)ccc1Sc1ccc(OC)cc1
    -0.78, -0.7
- O=C(NCc1ccco1)/C(=C/c1ccc(Cl)cc1)NC(=O)c1ccccc1
    -0.52, ·
- c1ccc(C2Oc3ccccc3C3Oc4ccccc4CC23)cc1 (centres undefined)
    0.18, 0
- N#Cc1c(N)nc(SCC(=O)OCc2ccccc2)c(C#N)c1-c1ccccc1Cl
    18, ·
- S=c1n(CN2CCCCC2)nc2n1CCCCC2
    ·, -0.35
- CCc1nnc(NC(=O)CC2CC3CCC2C3)s1 (centres undefined)
    ·, 0.05
- ClCc1cc(-c2ccccc2)on1
    -0.49, 0.15
- COc1ccc(CN2C(=O)C(F)(F)C2c2cccc(Cl)c2)cc1 (centres undefined)
    -0.07, 1.6
- COc1cc(/C=C2\Sc3ccccc3C2=O)c(Br)cc1OCc1ccccc1
    -0.89, ·
- CCn1nc(C(=O)N2CCCSC2=Nc2ccccc2)c2ccccc2c1=O
    ·, 0.05
- Cc1ccc(C(CCNC(=O)c2cccs2)c2ccco2)cc1 (centres undefined)
    -0.41, -1.5
- CNCC1OC(C23CC4CC(CC(C4)C2)C3)Cc2c1ccc(O)c2O (centres undefined)
    -0.55, ·
- O=C(N=CNC(=O)c1cccnc1)c1cccnc1
    0.32, -0.1
- Cc1cc(C)c2oc(-c3ccc(N)cc3O)nc2c1
    29, 0.25
- CS(=O)(=O)c1ccc(S(=O)(=O)NC2CCCCC2O)cc1 (centres undefined)
    0.73, ·
- O=c1cc(CO)oc(CN2CCCCC2)c1O
    -0.65, -0.5
- CC(C)(C)c1ccc(Oc2ncccc2NC(=O)c2ccccc2C(F)(F)F)cc1
    -0.09, ·
- CCOC(=O)C1=C(C)N=c2s/c(=C\c3ccc(OC)cc3)c(=O)n2C1c1cc(OC)ccc1OC (centres undefined)
    0.45, ·
- CCC(=O)Nc1c(-c2ccc(C)cc2)nc2cc(C)ccn12
    50, ·
- O=P(c1ccccc1)(c1nc2ccccc2s1)N1CCCCC1 (centres undefined)
    ·, -0.2
- Cc1cc(CSC(=N)N)c(CSC(=N)N)cc1C
    -0.58, ·
- CC(C)(C)c1cc(CCC(=O)OCCN(CCOC(=O)CCc2cc(C(C)(C)C)c(O)c(C(C)(C)C)c2)CCOC(=O)CCc2cc(C(C)(C)C)c(O)c(C(C)(C)C)c2)cc(C(C)(C)C)c1O
    -0.48, ·
- O=C(O)C1Cc2ccccc2CN1C(=O)CSc1nnc2ccccn12 (centres undefined)
    ·, 2.2
- O=C(NCCc1cccc(Cl)c1)OCCc1cccc(Cl)c1
    -1.1, ·
- CCOC(=O)c1cnc2ccc(C(=O)OC)cc2c1NCc1cccnc1
    12, 0.35
- Cc1ccc(-c2noc(C3CCNCC3)n2)cc1
    -0.34, ·
- CC(=O)Nc1nc(CSc2nnnn2-c2ccc(Cl)cc2)cs1
    ·, -0.8
- Cc1c(C(=O)N(CC(F)(F)F)C(C)C2CC2)oc2c(F)cccc12 (centres undefined)
    ·, -0.1
- COc1cc(C2C(C(=O)Nc3cccc(F)c3)=C(C)NC3=C2C(=O)CC(C)(C)C3)cc(OC)c1OC (centres undefined)
    20, ·
- CCCCCC1C(O)CCC1CC(=O)NN (centres undefined)
    -0.02, -0.75
- N#CC1=C(N)Oc2n[nH]c(-c3ccc(F)cc3)c2C1c1ccc(OC(=O)N2CCOCC2)cc1 (centres undefined)
    -0.4, ·
- O=C(O)C1C2C=CC3(CN(Cc4ccccc4)C(=O)C13)O2 (centres undefined)
    0.31, 0
- O=C1OC(c2ccccc2)C(O)(c2ccccc2)C12CCCCC2 (centres undefined)
    1.3, -0.85
- CCN(Cc1ccccc1)C(=O)CSc1nc(C)c(Cl)c(C)c1C#N
    3.3, -0.15
- Cc1sc(-c2ccccn2)nc1OC(=O)c1ccc(Cl)c(Cl)c1
    0.085, ·
- O=C(Nc1cccc(Cl)c1)NC1CCN(C2CCCCC2)C1 (centres undefined)
    -0.09, -0.95
- OC(CNCc1ccc(Cl)cc1)(c1ccccc1)c1ccc(F)cc1 (centres undefined)
    0.34, ·

Compound profiles (already shown). Order of values: CapD inh, AID504770
Shown for `Cc1ccc(C2=NN3C(C2)c2cc(Br)ccc2OC3c2ccc(OCc3ccccc3)cc2)cc1` (centres undefined) : -0.34, ·
Shown for `N#Cc1c(C(F)(F)F)cc(-c2cccs2)nc1OCC(=O)c1ccccc1` : 21, 0.75
Shown for `COc1ccc(S(=O)(=O)NCCC(=O)NC2CCCCC2)cc1` : -0.01, -0.45
Shown for `C=CCNC(=O)c1ccc2c(c1)N(Cc1cccc(Cl)c1)C(=O)c1ccccc1S2` : -0.68, 0.15
Shown for `O=C(O)C1Cc2ccccc2CN1C(=O)CSc1nnc2ccccn12` (centres undefined) : ·, 2.2

Continuation:
Every second line gives: CapD inh, AID504770
- O/N=C/c1cc(C(F)(F)F)cc(C(F)(F)F)c1
    0.53, 0.35
- CC(C)(C)n1ncc2c(=O)n(CC(=O)N3CCCc4ccccc43)cnc21
    ·, -1.2
- CCSc1nc(N)c2c3c(sc2n1)CN(Cc1ccccc1)CC3
    33, ·
- N#CCOC(=O)c1ccccc1S(=O)(=O)N1CCCCC1
    ·, 1.1
- CC1CC(Nc2ccccc2)c2ccccc2N1C(=O)c1ccccc1Cl (centres undefined)
    -0.85, ·
- CS(=O)(=O)Nc1ccccc1-c1nnc(Cc2cc(F)cc(F)c2)o1
    0.97, -0.7
- COc1cccc(CN(C(=O)/C=C/c2ccccc2)C2CCS(=O)(=O)C2)c1 (centres undefined)
    0.33, 0.05
- CCC(C)Nc1cc(C(C)C)c(C#N)c2nc3ccccc3n12 (centres undefined)
    73, -0.35
- CCN(CC)C(=O)c1ccc(-c2cccs2)s1
    11, 0.25
- Cc1cc(C)nc(SCc2cc(-c3nn(C)c(=O)c4ccccc34)ccc2C)n1
    0.05, -0.15
- CCOC(=O)c1cc(C#N)c(Oc2ccccc2OC)nc1-c1ccccc1
    -0.19, ·
- CC(CCOC(=O)NNC(=O)c1cc(Cl)ccc1Cl)c1ccccc1 (centres undefined)
    0.15, ·
- CCn1c2ccccc2c2nnc(NCCN3CCN(c4cc(Cl)ccc4C)CC3)nc21
    -0.73, -0.4
- Cc1nn(-c2ccccc2)c(N2CCCC2)c1/C=N/O
    ·, -1.4
- Cn1c(SCCc2ccccc2)nnc1-c1ccc2c(c1)OCO2
    0.59, 0.45
- COC(=O)C(O)(c1ccc(N)c(OC)c1)C(F)(F)F (centres undefined)
    0.38, -0.05
- CCOC(=O)c1nc(C)sc1-c1ccnn1S(=O)(=O)c1ccc(C)cc1
    -0.46, -0.75
- Cn1c(=O)c2c(nc(NCCOCCO)n2Cc2ccc(Cl)c(Cl)c2)n(C)c1=O
    0.27, ·
- CCOC(=O)CSc1nnc(CSc2nc3sc4c(c3c(=O)[nH]2)CCC4)n1-c1ccccc1
    1.2, ·
- N=c1n(CCO)c2ccccc2n1Cc1ccccc1Cl
    -0.81, 1.9
- COc1cccc(OC)c1CO
    0.59, 0.15
- COc1ccccc1/C=N/NC(=O)C(CCSC)NC(=O)c1ccc(C(F)(F)F)cc1 (centres undefined)
    0.36, ·
- OCc1nnc2n1N=C(c1ccc(Cl)cc1)CS2
    -0.22, 2
- COc1ccc(/C=C2\N=C(c3ccc(Cl)cc3)N(c3cc(C)cc(C)c3)C2=O)cc1OC
    -1.1, ·
- O=C(Nc1ccc2c(c1)OCCO2)c1ccc(N2CC3CC(C2)c2cccc(=O)n2C3)c(NC(=O)c2ccccc2Cl)c1 (centres undefined)
    -0.2, ·
- Cc1ccc(OCc2nnc(SCC(=O)Nc3ccc(C4CCCCC4)cc3)n2-c2ccccc2)c2c1CCC2
    0.45, ·
- Cc1ccc([N+](=O)[O-])cc1-n1c(C)c(CC(Cl)(Cl)Cl)c2c1CC(C)(C)CC2=O
    -0.2, ·
- Cc1sc2ncn(CC(=O)NCC(=O)N3CCN(c4ccccc4)CC3)c(=O)c2c1C
    -0.66, ·
- CCc1ccc(N(CC(=O)N2CCCCC2)S(C)(=O)=O)cc1
    ·, 2.6
- O=C(c1ccc(Cn2c(=O)c3cccn3c3cccnc32)cc1)N1CCCC1
    20, -0.5

3 compounds from above, sorted by count of non-hydrogen atoms, rising.
Every second line gives: CapD inh, AID504770
- O/N=C/c1cc(C(F)(F)F)cc(C(F)(F)F)c1
    0.53, 0.35
- Cn1c(SCCc2ccccc2)nnc1-c1ccc2c(c1)OCO2
    0.59, 0.45
- CS(=O)(=O)Nc1ccccc1-c1nnc(Cc2cc(F)cc(F)c2)o1
    0.97, -0.7

New compounds follow.
Every second line gives: CapD inh, AID504770
- CC(On1nnc2ccccc21)C(=O)Nc1ccc(Cl)cc1Cl (centres undefined)
    ·, -0.2
- O=C(NCCCN1CCCC1)c1cc2ccc3cccnc3c2[nH]1
    0.68, 0.25
- N#Cc1c(N2CCOCC2)cccc1-n1ccnc1
    101, -0.4
- CNS(=O)(=O)c1ccc(NC(=O)CCC(=O)c2ccc(C)cc2)cc1
    ·, -0.6
- OCCN(Cc1ccccc1)Cc1ccccc1
    ·, -0.8
- COc1cc(Br)c(/C=C2\C(=O)N(c3ccc(Cl)c(C(=O)O)c3)N=C2C)cc1OC
    -0.43, ·
- COc1ccccc1C1CCN(S(=O)(=O)c2cccc(Br)c2)CC1
    0.34, ·
- COc1ccc(OCCn2c(S(=O)(=O)Cc3ccccc3)nc3ccccc32)cc1
    -0.23, 1.2
- COc1ccc(CCNC(=O)c2cc3sc(C)cc3n2C)cc1OC
    -0.24, 0.65
- CCCCN(Cc1cc2ccccc2[nH]c1=O)S(C)(=O)=O
    19, 1.9
- CS(=O)(=O)N(CC(=O)Nc1ccc(Oc2ccccc2)cc1)c1cc(C(F)(F)F)ccc1Cl
    -0.16, ·
- N#CSCC(=O)c1ccc(Br)cc1
    0.43, 0.15
- O=c1cc(C(F)(F)F)nc(-c2cccs2)[nH]1
    -0.47, -0.85
- C/C(CCc1oc2ccc(Br)cc2c1-c1ccc(C)o1)=N\O
    0.05, 0.2
- CCn1c(C(=O)NC2CC2)cc2sc(Cl)cc21
    -0.015, 0
- COc1ccc(C2CC(=O)C3=C(C2)NC(C)=C(C#N)C3c2cc3c(cc2Cl)OCO3)cc1 (centres undefined)
    1.1, ·
- Cc1onc(-c2ccccc2)c1C(=O)C(C#N)c1nc(-c2ccc(F)cc2)cs1 (centres undefined)
    ·, -0.1
- CCOc1nc(NCCN2CCOCC2)nc(Nc2ccc(C)cc2)n1
    0.075, ·
- Cc1c(O)c(CN2CCC(C)CC2)cc2c(-c3ccccc3)cc(=O)oc12
    0.97, -1.1
- Cc1cc2c(cc1S(=O)(=O)N(C)Cc1ccccc1)n(C)c(=O)c(=O)n2C
    10, 0.35
- COc1cccc(NC(=O)c2oc3ccc(S(=O)(=O)N4CC(C)CC(C)C4)cc3c2C)c1 (centres undefined)
    0.52, 1.8
- COc1ccc(-c2nc3ccccc3c(=O)n2NCc2ccc(Br)cc2)cc1OC
    0.24, ·
- OC(CNC1CC1)Cn1c2ccccc2c2ccccc21 (centres undefined)
    -0.4, ·
- CCOC(=O)N1CCN(C(=O)c2sc3ncn(CC(=O)Nc4ccc(C)c(Cl)c4)c(=O)c3c2C)CC1
    -0.05, ·
- CNS(=O)(=O)c1ccc(Br)cc1I
    0.57, -0.7
- Cc1ccc(-c2nc(CSCC(=O)NCCN3CCN(c4cccc(Cl)c4)CC3)c(C)o2)cc1
    -0.025, 0.3
- C=CCc1cc(/C=C2\C(=O)NC(=S)N(c3ccc(CC)cc3)C2=O)cc(OC)c1OCC(=O)O
    -1.6, ·
- Cc1ccc(-c2csc(N3CCC(NS(=O)(=O)c4ccc5c(c4)OCCO5)CC3)n2)cc1
    ·, -0.1

Some of the compounds tested, so the mix of outcomes need not match the whole.
